Bioassay records from PubChem.
TRPML1 ag: qHTS for Agonists of the Human Mucolipin Transient Receptor Potential 1 (TRPML1); Mucolipin-1 (Homo sapiens), Q9GZU1; TRPML1-expressing cells, Ca2+ dye fluorescence, FDSS; host cell line not named in the record; reference of the full effect not given here; activation, % (test concentration not listed); 410,000 compounds, 0.12% hits; in the data active = activation above about 50%; inconclusive = about 30% to 50%; inactive = below about 30%; note: 0% is about no effect; the text of the record puts the active cut at 80%
Target sequence (Q9GZU1 whole entry, looked up): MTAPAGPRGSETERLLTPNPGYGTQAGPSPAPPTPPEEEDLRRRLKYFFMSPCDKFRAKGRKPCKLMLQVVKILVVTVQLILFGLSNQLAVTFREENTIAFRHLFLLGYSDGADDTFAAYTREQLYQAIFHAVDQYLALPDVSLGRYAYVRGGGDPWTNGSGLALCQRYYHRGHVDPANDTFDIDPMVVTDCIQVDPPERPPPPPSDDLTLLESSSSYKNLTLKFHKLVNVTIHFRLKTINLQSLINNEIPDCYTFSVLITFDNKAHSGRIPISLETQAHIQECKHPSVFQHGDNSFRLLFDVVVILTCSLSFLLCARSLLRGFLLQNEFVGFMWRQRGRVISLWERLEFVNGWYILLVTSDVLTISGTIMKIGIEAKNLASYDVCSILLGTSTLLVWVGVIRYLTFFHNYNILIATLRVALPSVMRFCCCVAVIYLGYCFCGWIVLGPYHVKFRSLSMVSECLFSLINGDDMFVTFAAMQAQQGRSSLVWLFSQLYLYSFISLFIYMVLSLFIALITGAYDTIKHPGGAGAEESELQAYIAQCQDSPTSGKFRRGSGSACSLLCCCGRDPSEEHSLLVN
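Tet-induced TRPML1-DL cells, 1,500 per well, cultured overnight, were loaded with a no-wash Ca2+ dye for 45–90 min. Calcium fluorescence was recorded on the FDSS for 110 s after compound addition, before the EC80 agonist (4 uM 54-4) was added.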
D2 potentiator: Beta-Arrestin HTS for Positive Allosteric Modulators of the Human D2 Dopamine Receptor: Potentiators; D(2) dopamine receptor (Homo sapiens), P14416; DiscoveRx D2 beta-arrestin cells, luminescence, 90 min; 100% = 57 uM dopamine signal; potentiation, % (concentration not given with the values); 360,000 compounds, 0.23% hits; AID 624464, 2012; active = potentiation of 50% or more; inconclusive = 30% to 50%; inactive = 30% or less;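 note: tested on top of an EC20 dose of dopamine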
Target sequence (P14416 whole entry, looked up): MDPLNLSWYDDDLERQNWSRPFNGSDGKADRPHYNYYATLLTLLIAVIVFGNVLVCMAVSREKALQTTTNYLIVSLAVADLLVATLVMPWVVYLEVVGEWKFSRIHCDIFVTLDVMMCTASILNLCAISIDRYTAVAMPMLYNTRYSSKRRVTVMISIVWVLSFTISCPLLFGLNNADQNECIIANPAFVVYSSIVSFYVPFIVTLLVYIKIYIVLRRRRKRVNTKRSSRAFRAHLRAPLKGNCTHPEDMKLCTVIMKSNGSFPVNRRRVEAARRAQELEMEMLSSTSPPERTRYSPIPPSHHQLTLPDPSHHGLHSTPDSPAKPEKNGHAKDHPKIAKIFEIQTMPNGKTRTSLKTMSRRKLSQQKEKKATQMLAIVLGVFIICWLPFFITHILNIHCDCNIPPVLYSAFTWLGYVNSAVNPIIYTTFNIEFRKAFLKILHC
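PathHunter D2 cells, attached overnight at 37 deg C, received compound in DMSO plus dopamine at EC20 (50 nM final) for 90 min at 37 deg C. Beta-arrestin recruitment was read as luminescence after 1 h with detection reagent at ambient temperature.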
D2 agonist: Beta-Arrestin HTS for Positive Allosteric Modulators of the Human D2 Dopamine Receptor: Agonists; AID 624465, 2012; DiscoveRx PathHunter D2 beta-arrestin, luminescence, 90 min; 100% = 57 uM dopamine signal; 360,000 compounds, 0.084% hits; D(2) dopamine receptor (Homo sapiens), P14416; activation, % (no concentration beside the values); in the data active = activation above about 40%; inconclusive = about 15% to 40%; inactive = below about 15%; note: compound concentration not given in the record; the text of the record calls up to 30% inactive
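Agonist mode: compounds alone added to overnight-plated D2 PathHunter cells for 90 min at 37 C, with 57 uM final dopamine (EC100) defining full response. Beta-arrestin recruitment detected by chemiluminescent reagent, read after 1 h at ambient temperature.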
PINK1 modulator: A Quantitative High throughput Screen to Identify Chemical Modulators of PINK1 Expression. 410,000 compounds, 0.2% hits. Potency, µM (highest dose often 76.6 µM), for the others: at the top dose activation (PINK1 increase), most hits filed as activators. PINK1 immunofluorescence, high-content cytometry, 24 h; active = well fitted activation curve with a large enough effect; inconclusive = small, poorly fitted or top-dose-only effect; inactive = flat fitted curve, though single readings scatter; cell line not stated here;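 note: potency is the fitted concentration of half-maximal effect; % of control where 0% means no effect; nearly all actives have a fitted effect of over 65% in size; a mitochondrial uncoupler was the plate control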
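PINK1 protein, normally rapidly degraded, was detected by immunofluorescence after 24 hour compound treatment of a stable cell line. Titration data (5 concentrations) came from laser-scanning cytometry, with CCCP-treated wells as controls.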
TRPML1 inh: qHTS for Inhibitors of the Human Mucolipin Transient Receptor Potential 1 (TRPML1) | TRPML1-inducible cells, Ca2+ dye fluorescence, FDSS; hits give low values; inhibition of EC80 agonist-evoked calcium signal | activity change, negative = inhibition, % (test concentration not listed) | 390,000 compounds, 0.02% hits; in the data active means activity change below about -50%; inconclusive means about -30% to -50%; inactive means above about -30%;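 note: stimulus is agonist 54-4 at its EC80 concentration; % is set by controls: 0 for no effect and ±100 for the full control effect; compound concentration not given in the record; the text of the record puts the active cut at -80%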
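TRPML1-DL cells, Tet-induced overnight (~16 h, 37 °C) at 1,500 cells/well, were loaded with Ca8 no-wash dye plus quencher for 45-90 min at room temperature. Compounds were pinned during FDSS kinetic reading; agonist 54-4 at EC80 (4 uM final) then added.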
Six1-Eya2 blk: qHTS Assay for Inhibitors of the Six1/Eya2 Interaction | AlphaScreen GST-Six1/His-Eya2 binding, biochemical; hits give low values; control for the full effect not named in the record | activity change, % (no concentration beside the values) | 360,000 compounds, 0.56% hits | AID 651725, 2012; in the data active = activity change below about -65%; inconclusive = about -30% to -65%; inactive = above about -30%; note: % is set by controls: 0 for no effect and ±100 for the full control effect
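GST-Six1 + His-Eya2 (5X stock: 250/500 nM); Tris pH 8.0, 300 mM NaCl, 0.05% BSA, 0.02% Tween 20; GSH donor/Ni acceptor beads; 1 h 37 °C dark; AlphaScreen readout.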
* = called active by the depositor; u = inconclusive; x = no result given; & = joins results of further samples; [ ] = remark or other dose. The order is random. About 1% of those tested had a hit in this group.

SMILES	TRPML1 ag	D2 potentiator	D2 agonist	PINK1 modulator	TRPML1 inh	Six1-Eya2 blk
CC(C)(C)Cc1c(-c2ccc(Cl)cc2)nc2ccc(Cl)cn12	1.3	0.7	-2.8	u	3.6	11.0
CCS(=O)(=O)N1Cc2ccccc2CC1C(=O)Nc1ccc(OC)cc1OC (stereo not given)	-1.5	-4.0	0.7	3.1%	32.8	-4.4
COc1cc2c(cc1OC)C(NC(=O)c1ccc(C)cc1)CC2=O (stereo not given)	1.3	3.9	0.8	-1.1%	7.2	6.3
CCOc1ccc(N2C(=O)CC(N(CCc3ccc(OC)c(OC)c3)C(=O)/C=C/C(=O)O)C2=O)cc1 (stereo not given)	0.8	-8.0	-1.9	0.6%	-7.6	-0.8
CC(=O)Nc1ccc(Nc2cc(N(C)C)c3nonc3c2[N+](=O)[O-])cc1	-0.4	0.0	-3.7	0.2%	2.6	-1.2
CCOC(=O)C1=C(C)N=c2s/c(=C/c3ccco3)c(=O)n2C1c1cccc(OC)c1 (stereo not given)	0.8	-24.1	-2.9	-0.6%	-2.0	-22.2
COc1ccccc1CNC(=O)CCCNS(=O)(=O)c1cccc2nsnc12	-0.5	2.8	-3.7	1.4%	15.7	-1.2
Cc1nc2nc[nH]n2c(=O)c1C/C=C/c1ccccc1	-0.5	8.3	4.4	-1.2%	-6.0	-18.7
CC(=O)c1cccc(OCC(=O)N(C)CC(=O)NCc2ccco2)c1	0.0	-2.0	-5.7	-0.7%	-17.1	u
Cc1nc2ccccc2cc1C(=O)N/N=C/c1ccco1	-0.7	-6.4	-2.8	-0.1%	-23.0	10.3
O=C(C1CCCN(Cc2nc(-c3cccs3)no2)C1)N1CCOCC1 (stereo not given)	-0.4	-6.3	-3.0	0.7%	-0.3	12.0
O=C(Cc1cccs1)NCc1cccc(C(F)(F)F)c1	1.7	-8.2	-5.7	2.9%	-9.7	12.4
O=C1C(Cc2ccccc2)Nc2ncnc(N3CCCCC3)c2N1Cc1ccc(Br)cc1 (stereo not given)	1.1&0.3	-29.9&-30.3	-10.5&-18.3	5.1%&23.8%	-2.3&-10.1	-3.1&3.9
O=C(COC(=O)CNC(=O)c1ccccc1F)Nc1ccc2c(c1)OCO2	0.0	-2.4	0.0	1.7%	-24.7	0.5
O=C(NCCc1ccccc1Cl)C1CCC(=O)N(Cc2cccc(C(F)(F)F)c2)C1 (stereo not given)	-0.2	-10.5	-0.4	0.4%	7.1	3.4
O=C(NC1CCCC1)C(=O)N(c1ccccc1F)C(C(=O)NCC1CCCO1)c1cccs1 (stereo not given)	-0.7	1.2	-5.0	0.9%	-11.7	-1.2
COc1ccc(/C=C/C(=O)c2cc(Cl)ccc2O)c(OC)c1	0.9	-2.6	-1.9	15.9%	-4.5	2.1
CCc1ccc(-n2nc(CO)c(C(=O)NC(C)c3ccc(Cl)cc3)n2)cc1 (stereo not given)	5.2	x	x	1.3%	18.5	x
CCN(CC)S(=O)(=O)c1ccc(N2CCOCC2)c(NC(=O)c2ccco2)c1	1.6	-4.1	-2.9	-0.1%	-12.0	1.2
CC(=O)NC1CC2CCCC(C1)N2C(=O)Nc1cccc(C)c1 (stereo not given)	0.0	-1.0	-2.1	-0.8%	-4.3	4.0
CCN1C[C@@H]2[C@@H]3C(=O)N(Cc4ccccc4)C(=O)[C@@H]3[C@](C)(C1=O)N2C(=O)c1ccc(C(C)(C)C)cc1	0.1	-3.1	0.8	0.1%	-1.4	10.2
Cc1cccc(NC(=O)CSc2ncnc3sc(C)cc23)c1	2.3	0.0	-4.0	0.8%	18.7	7.7
COc1ccc(NC(=O)C2(C)CCN2C(=O)c2ccc(C(C)(C)C)cc2)cc1OC (stereo not given)	-1.3	-8.4	-4.7	1.0%	x	-7.7
Cc1nc2ccc(NC(=O)CCC3CCCC3)cc2s1	1.5	-5.9	-0.2	1.7%	1.2	-0.7
Cc1ccc(C(=O)Nc2ccc(S(=O)(=O)NCc3ccco3)cc2)cc1	0.9	-3.2	-0.1	18.8%[38.3 µM]	5.6	1.2
O=C(CCN1C(=O)COc2ccccc21)NCc1cccnc1	0.6	-7.9	0.6	-0.2%[38.3 µM]	5.5	4.9
CCn1c(SCC(=O)Nc2ccc(N3CCOCC3)cc2)nnc1-c1ccncc1	1.6	-2.7	-5.2	0.8%	-12.7	-2.6
Cc1ccc(-n2nc(C(=O)O)nc2-c2ccccc2)cc1	0.4	-16.0	-0.8	-2.6%	11.1	-18.7
Cc1cccc(-n2c(SCC(N)=O)nnc2-c2ccccn2)c1C	-0.3	-23.3	0.6	-1.2%	5.2	-29.6
CN1CCN(Cc2nnc(-c3ccccc3)o2)CC1	0.9	-3.4	-2.0	0.4%	-2.0	0.8
CCC(c1nnc(SCC(=O)Nc2cccc(S(N)(=O)=O)c2)n1Cc1ccccc1)N(C)C (stereo not given)	0.9	-6.5	-1.5	-1.0%	23.9	7.2
CCOc1ccc(C2CC(c3cccc(OC)c3OC)n3nnnc3N2)cc1Cl (stereo not given)	-0.1	-0.5	-1.4	-1.2%	7.4	-2.0
CCSc1nnc2c(n1)OC(c1ccc(C(=O)O)cc1)N(C(C)=O)c1ccccc1-2 (stereo not given)	0.0	-1.2	1.6	-0.9%	-1.6	24.5
CCOC(=O)c1cccc(NC(=O)C(NS(=O)(=O)c2ccc3c(c2)CCN3C(C)=O)C(C)C)c1 (stereo not given)	-0.3	-8.0	-3.6	1.1%	4.5	3.2
O=C(Nc1ccc(C(F)(F)F)cc1)C1CCCN(c2cnccn2)C1 (stereo not given)	5.1	x	x	4.5%	10.8	x
CC(C)Cc1ccc(-c2cc3nc(NCC4CC4)ccn3n2)cc1	-0.7	-2.1	9.3	u	x	4.9
CC12CCC(C(=O)Nc3cccc4ccccc34)(C1Br)C2(C)C (stereo not given)	2.6	-3.4	-1.5	-0.6%	73.7	5.0
CC(C)NC(=O)C(=O)NCCc1ccc(Cl)cc1	0.2	-6.0	-2.0	1.4%	-8.1	-7.2
C=CCc1c(C)nc(SC)nc1Nc1ccccc1	3.9	-7.1	1.1	-2.7%	-19.3	2.3
CCCn1c(N2CCN(CC(=O)c3c(C)n(C)c4ccccc34)CC2)nc2c1c(=O)[nH]c(=O)n2C	-0.4	-3.2	-1.8	-0.2%	9.1	3.9

3 compounds picked at random from the list so far, as already listed:
SMILES	TRPML1 ag	D2 potentiator	D2 agonist	PINK1 modulator	TRPML1 inh	Six1-Eya2 blk
O=C(C1CCCN(Cc2nc(-c3cccs3)no2)C1)N1CCOCC1 (stereo not given)	-0.4	-6.3	-3.0	0.7%	-0.3	12.0
CCc1ccc(-n2nc(CO)c(C(=O)NC(C)c3ccc(Cl)cc3)n2)cc1 (stereo not given)	5.2	x	x	1.3%	18.5	x
CCOc1ccc(C2CC(c3cccc(OC)c3OC)n3nnnc3N2)cc1Cl (stereo not given)	-0.1	-0.5	-1.4	-1.2%	7.4	-2.0

More results:
SMILES	TRPML1 ag	D2 potentiator	D2 agonist	PINK1 modulator	TRPML1 inh	Six1-Eya2 blk
CC1CCC(NC(=O)C(C)N2C(=O)C3CCCCC3C2=O)CC1 (stereo not given)	-0.5	-2.0	-4.1	0.3%	0.1	3.1
O=[N+]([O-])c1ccccc1/C=C/CN1CCC(O)CC1	0.2	-8.8	-3.6	2.0%	-3.6	4.0
CCOC(=O)c1c(/N=C/C2C(=O)CC(C)(C)CC2=O)sc2c1CCCC2	1.1	-2.0	3.5	2.3%	37.4	2.3
Cc1noc(/C=C/c2cccs2)c1S(=O)(=O)N1CCC(C(=O)NCc2ccc(Cl)cc2)CC1	0.7	x	x	0.3%	-10.5	x
Cc1ccc(S(=O)(=O)N2CCC(C(=O)N[C@@H](C)C(=O)NCCc3ccccc3)CC2)cc1	-0.2	-0.3	1.9	-1.3%	-7.8	6.8
O=C(Cc1ccc(NC(=O)C2CCN(C(=O)c3ccccc3)CC2)cc1)Nc1cccc(C(=O)N2CCCC2)c1	1.8	9.4	3.7	-1.1%	43.4	-1.6
COc1ccccc1C1CCN(C(=O)C2CCCCC2)CC1	0.0	-11.8	-8.4	1.3%	-0.6	23.7
Cc1ccc2cc(CCNC(=O)C(=O)c3c(C)[nH]c4ccccc34)c(=O)[nH]c2c1	0.7	-1.6	-1.1	0.8%	-3.0	-2.6
O=C(CCn1cccn1)N1CCCC(Nc2ccc(F)c(F)c2)C1 (stereo not given)	-0.8	-19.7	-0.2	2.0%	-4.4	6.6
O=S(=O)(c1ccccc1)N1CCC(=NO)CC1	-0.7	-1.0	7.2	-0.9%	0.8	-1.2
COc1cccc(/C=C/c2ccc3ccccc3n2)c1OC(C)=O	1.3	-2.4	2.0	-0.3%	-10.1	-1.4
Cc1cc(NS(=O)(=O)c2ccc(NC(=S)NC(=O)c3ccc(C(C)(C)C)cc3)cc2)no1	3.6	-26.6	1.3	-0.2%	-19.8	-8.7
Cc1ccc(S(=O)(=O)N(CC2CO2)c2cccc([N+](=O)[O-])c2)cc1 (stereo not given)	0.1	-3.0	1.1	0.3%	18.5	-5.9
CC(C)CNC(=O)C1Nc2ccc(OC(F)(F)F)cc2C2C=CCC12 (stereo not given)	-0.1	-13.0	-1.1	0.4%	-1.6	-2.5
COc1c(S(=O)(=O)N2CCN(C(=O)c3ccco3)CC2)ccc(Cl)c1Cl	0.4	-3.1	0.1	1.3%	26.4	-9.4
Cc1cc(C)cc(C(=O)NCC(=O)NCCc2c[nH]c3ccccc23)c1	-0.2	-8.3	-4.0	4.1%	35.7	5.8
CCOC(=O)C1=C(C)n2c(s/c(=C/c3cccc([N+](=O)[O-])c3)c2=O)=NC1c1ccc(O)c(OC)c1 (stereo not given)	1.6	-7.5	-1.0	-8.8%[38.3 µM]	-6.7	-1.7
COc1ccnc(Oc2ccccc2)c1-c1ncn[nH]1	1.0	-3.8	5.1	0.5%	4.1	2.2
Cc1ccc(S(=O)(=O)N2CCCC(C(=O)N3CCN(c4ccccc4)CC3)C2)cc1 (stereo not given)	2.8	-23.1	-1.8	-1.0%	6.1	-10.6
Cc1ccc(NC(=O)c2cc([N+](=O)[O-])ccc2N2CCOCC2)cc1S(=O)(=O)N(C)C	-0.7	-4.3	0.2	0.3%	-2.4	-20.6
CCc1ccccc1NC(=O)Cn1ccn(-c2ccc(OC)cc2)c(=O)c1=O	0.2	-8.0	0.4	0.0%	-17.3	0.1
